Cruzain noTriton: blocks cruzain activity in detergent-free assay. purified cruzain, Z-FR-AMC fluorescence, no detergent. Potency, µM, for the others: max response, negative = inhibition, hits mostly inhibitors. actives 2.3% (n = 200,000). AID 1476;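 further: plate controls were enzyme without inhibitor for no effect and buffer without enzyme for full effect; nearly all actives have a fitted effect of over 40% in size; top concentration of the series not given in the record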
Target sequence (P25779 123-467 limits assumed): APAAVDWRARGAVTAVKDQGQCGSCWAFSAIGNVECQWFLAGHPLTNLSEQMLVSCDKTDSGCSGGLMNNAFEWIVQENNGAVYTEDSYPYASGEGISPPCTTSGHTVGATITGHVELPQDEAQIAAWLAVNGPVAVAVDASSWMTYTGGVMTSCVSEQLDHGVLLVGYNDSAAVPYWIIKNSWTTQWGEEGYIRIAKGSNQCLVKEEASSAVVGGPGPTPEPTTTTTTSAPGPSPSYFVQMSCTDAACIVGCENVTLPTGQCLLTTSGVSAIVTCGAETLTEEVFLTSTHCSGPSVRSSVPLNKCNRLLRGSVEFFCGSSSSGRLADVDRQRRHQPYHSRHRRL
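Detergent-free condition (0.00005% Triton X-100) in acetate buffer pH 5.5 with DTT. 1.5 nM enzyme and compound were pre-mixed 15 min, then 2 uM Z-FR-AMC substrate added; reaction progress from fluorescence change between first and third reads (60 s).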
RE007 growth inh: less growth of the S. pombe RE007 Vpr strain. actives 0.21% (n = 360,000). Potency, µM (doses to about 92.2 µM), for inactives: at the top dose activity change, negative = less growth. AID 651644. S. pombe RE007 Vpr strain, BacTiter-Glo ATP luminescence, 24 h; control for the full effect not named in the record; active = well fitted falling curve with a large enough effect; inconclusive = small, poorly fitted or top-dose-only effect; inactive = no such curve, though single readings can be large or run the other way;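 further: on the % scale 0 is the no-effect control and ±100 the full control effect; nearly all actives have a fitted effect of over 50% in size; the assay follows cell death caused by Vpr and the record does not say whether a fall means rescue or toxicity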
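Fission yeast strain RE007, carrying one chromosomally integrated HIV-1 vpr copy, was seeded at OD 0.01 in PMG+AL medium with 23 nL pinned compound. After 24 h at 30 °C and 99% humidity, viability was read by BacTiter-Glo luminescence.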
LASV entry inh: inhibitors of Lassa virus binding or cell entry. Potency, µM (highest dose often 37.9 µM), for inactives: at the highest dose activity change, negative = inhibition, usual class: inhibitors. actives 1.2% (n = 300,000). Lassa virus pseudotype entry inhibition, cell reporter; control for the full effect not named in the record; active means well fitted inhibition curve with a large enough effect; inconclusive means small, poorly fitted or top-dose-only effect, or effect the other way; inactive means flat fitted curve, though single readings scatter; tested in HEK293 cells; further: on the % scale 0 is the no-effect control and ±100 the full control effect; nearly all actives have a fitted effect of over 50% in size; luciferase read-out
Cruzain Triton: inhibitors of Trypanosoma cruzi cruzain with detergent. purified cruzain, Z-FR-AMC fluorescence, 0.01% Triton. P25779. actives 0.43% (n = 200,000). Potency, µM, for the others: max response, negative = inhibition, actives largely listed as inhibitors;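 further: plate controls were neutral wells for no effect and buffer without enzyme for full effect; nearly all actives have a fitted effect of over 40% in size; top concentration of the series not given in the record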
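15 min RT preincubation of 1.5 nM cruzain with compound, then 2 uM Z-FR-AMC added; kinetic AMC fluorescence, 60 s delta. Triton X-100 0.01%, pH 5.5.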
2A StopGo: FMDV 2A StopGo reporter, luciferase signal | human cells with a luciferase reporter of 2A StopGo recoding; control for the full effect not named in the record | Potency, µM (series often up to 57.9 µM), inactives show top-dose signal change, negative = less light | actives 1.2% (n = 410,000) | AID 1159524; active = well fitted falling curve with a large enough effect; inconclusive = small, poorly fitted or top-dose-only effect; inactive = no such curve, though single readings can be large or run the other way; tested in HEK293T cells; further: on the % scale 0 is the no-effect control and ±100 the full control effect; nearly all actives have a fitted effect of over 45% in size; luciferase light after 4 h
NS1 inh: inhibitors of influenza NS1 protein function; Potency, µM (top dose mostly 46.1 µM), without a hit: at the highest dose activity, positive = more growth; actives 0.4% (n = 270,000); S. cerevisiae slowed by influenza A NS1, growth recovery by OD600; active means well fitted rising curve with a large enough effect; inconclusive means small, poorly fitted or top-dose-only effect; inactive means no such curve, though single readings can be large or run the other way; further: nearly all actives have a fitted effect of over 50% in size
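OD600 was taken as the measure of yeast growth restored by compound in an NS1-expressing S. cerevisiae strain. Cells had been washed out of glucose medium and diluted 1:100 into galactose -URA medium, pH 6.0.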
SARS PLpro yeast: inhibitors of SARS-CoV papain-like protease in yeast; Potency, µM (highest dose often 32.9 µM), for inactives: top-dose activity, positive = growth rescue; S. cerevisiae expressing SARS-CoV PLpro, growth rescue; control for the full effect not named in the record; AID 485353; actives 0.19% (n = 330,000); active means well fitted rising curve with a large enough effect; inconclusive means small, poorly fitted or top-dose-only effect; inactive means no such curve, though single readings can be large or run the other way; further: 0% is about no effect; nearly all actives have a fitted effect of over 55% in size; growth read by luminescence after 48 h
MARV entry inh: inhibitors of Marburg virus binding or cell entry. Marburg virus pseudotyped entry inhibition, cell reporter; control for the full effect not named in the record; about a third of the inactives were read at about 46 µM. Potency, µM (series often up to 37.8 µM), for inactives: at the top dose activity change, negative = inhibition, most hits filed as inhibitors. actives 1.8% (n = 300,000). AID 540276; active = well fitted inhibition curve with a large enough effect; inconclusive = small, poorly fitted or top-dose-only effect, or effect the other way; inactive = flat fitted curve, though single readings scatter; tested in HEK293 cells; about a fifth of its hits are not listed in these tables; further: on the % scale 0 is the no-effect control and ±100 the full control effect; luciferase read-out
The depositor's hits bear a star; & = joins results of further samples; [ ] = another dose, or the depositor's remark. Unless noted, the call rests on the fitted dose curve; in most records, active means well fitted curve in the direction sought with a large enough effect; inconclusive means small, poorly fitted or top-dose-only effect, or another doubt; inactive means no such curve, though single readings can be large; an effect the other way counts as inactive or inconclusive. Potency means the concentration at half of the fitted maximal effect. The order is random; overall some 4.7% were active at least once.

What do the screens show for `O=C(Nc1ccc2oc(-c3ccc4ccccc4c3)nc2c1)c1cccc(Cl)c1Cl`?
Cruzain noTriton: 1%; LASV entry inh: 9%[46.1 µM]; Cruzain Triton: -1.2%; 2A StopGo: 21%

Results for [O-]/C(=C(\C(=S)NCCN1CCOCC1)[n+]1ccccc1)c1ccc(Cl)s1 ?
RE007 growth inh: -8%; LASV entry inh: 20%[46.1 µM]; 2A StopGo: -7%; SARS PLpro yeast: -1%; MARV entry inh: 23%[46.1 µM]

What do the screens show for `CCN1C(=O)CSc2ccc(C(=O)NCc3ccco3)cc21`?
Cruzain noTriton: -2%; RE007 growth inh: -5%; LASV entry inh: 2%; Cruzain Triton: -0.9%; 2A StopGo: 9%; NS1 inh: 4%; SARS PLpro yeast: 9%; MARV entry inh: 12%

How did O=C(NC1CCCCC1)C(c1ccc(O)c(O)c1)N(C(=O)Cn1nnc2ccccc21)c1cccc(O)c1 (stereo unspecified) do in these assays?
RE007 growth inh: -10%; LASV entry inh: -6%; 2A StopGo: -1%; NS1 inh: 9%; SARS PLpro yeast: 1%; MARV entry inh: 12%[46.1 µM]

How did CS(=O)(=O)n1nc(-c2cccnc2)nc1NCc1ccccc1 do in these assays?
RE007 growth inh: -11%; LASV entry inh: inconclusive; 2A StopGo: -9%; NS1 inh: -2%; SARS PLpro yeast: 0%; MARV entry inh: -28%[46.1 µM]

What do the screens show for `COc1ccccc1C1=NOC(CN2C(=O)c3ccccc3S2(=O)=O)C1` (stereo unspecified)?
RE007 growth inh: 9%; LASV entry inh: inconclusive; 2A StopGo: 5%; NS1 inh: -2%; SARS PLpro yeast: 0%; MARV entry inh: inconclusive

How did c1ccc2c(C3=NNC(=NC4CC4)SC3)c[nH]c2c1 do in these assays?
Cruzain noTriton: -5%; RE007 growth inh: -3%; LASV entry inh: 11µM*; Cruzain Triton: -5.4%; 2A StopGo: -61%; NS1 inh: 1%; SARS PLpro yeast: -10%; MARV entry inh: inconclusive

Results for Cc1cc(=O)c(C(=O)O)c(C)n1-c1ccccc1 ?
RE007 growth inh: 4%; LASV entry inh: 25%; 2A StopGo: 0%; MARV entry inh: 6%

Results for COc1ccccc1NS(=O)(=O)c1cc(NC(=O)Nc2cccc(C)c2)ccc1N1CCCCC1 ?
Cruzain noTriton: 5µM*; RE007 growth inh: 18%; LASV entry inh: -12%; Cruzain Triton: -1.5%; 2A StopGo: 60%[activator]; NS1 inh: inconclusive; SARS PLpro yeast: 18%; MARV entry inh: inconclusive

Results for COc1ccc(CC(=O)c2ccc(O)cc2O)cc1 ?
Cruzain noTriton: -17%; RE007 growth inh: -3%; Cruzain Triton: -13%; 2A StopGo: 39%&17%[activator]; NS1 inh: -54%; SARS PLpro yeast: -2%

What do the screens show for `COc1ccccc1N1CCN(C(=O)c2ccc3nc[nH]c3c2)CC1`?
Cruzain noTriton: 11%; RE007 growth inh: 0%; LASV entry inh: 9%; Cruzain Triton: -0.3%; 2A StopGo: -6%; NS1 inh: 2%; SARS PLpro yeast: 10%; MARV entry inh: -9%

Results for C=CCS/C(N)=N\N=C\c1cc(Br)cc([N+](=O)[O-])c1O ?
RE007 growth inh: 4%; LASV entry inh: 5%; 2A StopGo: inconclusive; NS1 inh: -1%; SARS PLpro yeast: -1%; MARV entry inh: 7%[46.1 µM]

How did CCOc1ccccc1C1CC(c2cccc(NS(C)(=O)=O)c2)=NN1C(=O)c1ccccc1 (stereo unspecified) do in these assays?
Cruzain noTriton: 5%; RE007 growth inh: -1%; LASV entry inh: -15%; Cruzain Triton: -8.5%; 2A StopGo: -5%; NS1 inh: 29%; SARS PLpro yeast: -1%; MARV entry inh: -13%

How did CCn1ccc2cc(S(=O)(=O)N3CCCN(C(=O)Nc4ccccc4C(F)(F)F)CC3)ccc21 do in these assays?
Cruzain noTriton: 19%; LASV entry inh: -32%[46.1 µM]; Cruzain Triton: -5.1%; 2A StopGo: -18%

How did CN(c1ccc(OCC(=O)OCC(=O)Nc2c(F)c(F)c(F)c(F)c2F)cc1)S(=O)(=O)c1ccc(F)cc1 do in these assays?
Cruzain noTriton: -21%; RE007 growth inh: 4%; LASV entry inh: 4%; Cruzain Triton: -8.0%; 2A StopGo: -27%; NS1 inh: -9%; SARS PLpro yeast: -28%; MARV entry inh: 9%

What do the screens show for `Cc1ccc(OCCN2CCN(C(=O)CCC(=O)Nc3nnc(C(C)C)s3)CC2)cc1`?
Cruzain noTriton: inconclusive; RE007 growth inh: -18%; LASV entry inh: inconclusive; Cruzain Triton: 2.6%; 2A StopGo: inconclusive; NS1 inh: -17%; SARS PLpro yeast: 12%; MARV entry inh: inconclusive

How did COC(=O)c1c(C)[nH]c(C(=O)C(C)OC(=O)C2=NNC(=O)CC2)c1C (stereo unspecified) do in these assays?
RE007 growth inh: -9%; LASV entry inh: 2%; 2A StopGo: -7%; NS1 inh: 3%; SARS PLpro yeast: 3%; MARV entry inh: 12%[46.1 µM]

Results for COc1ccc(NC(=O)CN2C(=O)NC(C)(C3CC3)C2=O)cc1S(=O)(=O)N1CCCCC1 (stereo unspecified) ?
RE007 growth inh: 23%; LASV entry inh: 6%; 2A StopGo: -15%; SARS PLpro yeast: 4%; MARV entry inh: 18%

What do the screens show for `CCN1CCC(NCC2CCCCC2)CC1`?
RE007 growth inh: -8%; 2A StopGo: -1%; NS1 inh: 7%; SARS PLpro yeast: 5%

Results for O=C(CSC1=NS(=O)(=O)c2cc(Cl)ccc2N1)Nc1ccccc1C(F)(F)F ?
RE007 growth inh: -6%; LASV entry inh: -23%; 2A StopGo: 7%; SARS PLpro yeast: 0%; MARV entry inh: 3%[46.1 µM]

How did CCc1nn(CC(=O)Nc2cccc(C(C)=O)c2)c(=O)c2cc3sccc3n12 do in these assays?
Cruzain noTriton: -7%; Cruzain Triton: -7.2%; 2A StopGo: -2%; MARV entry inh: -2%[46.1 µM]

How did CCNC(=S)Nc1ccc(OC(F)(F)F)cc1 do in these assays?
RE007 growth inh: 20%; 2A StopGo: 41%[activator]; NS1 inh: 1%; SARS PLpro yeast: 21%

How did Cc1ccc(C)c(NCC(O)c2ccccc2)c1 (stereo unspecified) do in these assays?
RE007 growth inh: -10%; LASV entry inh: 2%; 2A StopGo: 12%; NS1 inh: 4%; SARS PLpro yeast: 0%; MARV entry inh: -2%[46.1 µM]

What do the screens show for `COc1ccc2oc(C(=O)OCC(=O)N3CCN(S(=O)(=O)c4ccc(C)cc4)CC3)c(C)c2c1`?
RE007 growth inh: 10%; 2A StopGo: inconclusive; NS1 inh: -15%; SARS PLpro yeast: 4%

How did CCOc1ccc(S(=O)(=O)N2CCCCC2)cc1NC(=O)CCNC(=O)c1ccco1 do in these assays?
RE007 growth inh: 11%; LASV entry inh: 12%; 2A StopGo: -5%; SARS PLpro yeast: 0%; MARV entry inh: -13%

What do the screens show for `Cc1ccc(NC(=O)CNc2ccccc2N2CCCC2=O)cc1S(=O)(=O)N1CCOCC1`?
RE007 growth inh: 2%; LASV entry inh: -3%[46.1 µM]; 2A StopGo: -4%; SARS PLpro yeast: 2%; MARV entry inh: inconclusive

Results for COC(=O)C(CCC(C(=O)OC)N1C(=O)c2ccccc2C1=O)N1C(=O)c2ccccc2C1=O (stereo unspecified) ?
RE007 growth inh: 13%; LASV entry inh: 13%; 2A StopGo: -8%; MARV entry inh: 18%

Results for Cc1nc(SCc2ccc(OCCC(C)C)cc2)n[nH]1 ?
RE007 growth inh: inconclusive; 2A StopGo: 23%; NS1 inh: 0%; SARS PLpro yeast: -4%

Results for COc1ccc(-c2cc(C(=O)Oc3ccc(Br)cc3)c3ccccc3n2)cc1 ?
Cruzain noTriton: inconclusive; LASV entry inh: -3%[46.1 µM]; Cruzain Triton: -2.7%; 2A StopGo: -2%; MARV entry inh: 7%[46.1 µM]

How did CCOc1ccc(CCNC(=O)COC(=O)c2cc(OC)cc(OC)c2)cc1OCC do in these assays?
RE007 growth inh: -14%; 2A StopGo: -4%; SARS PLpro yeast: -1%; MARV entry inh: 1%[46.1 µM]

How did O=S(=O)(c1ccccc1)c1nnn2c1nc(NCc1ccc(Cl)cc1)c1sccc12 do in these assays?
Cruzain noTriton: -2%; LASV entry inh: 9%[46.1 µM]; Cruzain Triton: -1.8%; 2A StopGo: -11%

How did COc1ccc(N(C)S(=O)(=O)c2cccc(C(=O)NCC3CCCO3)c2)cc1 (stereo unspecified) do in these assays?
Cruzain noTriton: -1%; RE007 growth inh: -12%; LASV entry inh: inconclusive; Cruzain Triton: 0.4%; 2A StopGo: -9%; NS1 inh: 0%; SARS PLpro yeast: 13%; MARV entry inh: -9%

Results for Cc1c(C(=O)Nc2nc3ccccc3[nH]2)oc2ccc(Br)cc12 ?
Cruzain noTriton: inconclusive; RE007 growth inh: 4%; LASV entry inh: -2%; Cruzain Triton: -3.9%; 2A StopGo: 38%[activator]; NS1 inh: 0%; SARS PLpro yeast: 4%; MARV entry inh: 0%

What do the screens show for `COc1ccc(-n2c(=S)[nH]c3cc(C(=O)N4CCN(c5ccccc5)CC4)ccc3c2=O)cc1`?
RE007 growth inh: 11%; LASV entry inh: 10%[46.1 µM]; 2A StopGo: -18%; NS1 inh: 11%; SARS PLpro yeast: 13%; MARV entry inh: -17%[46.1 µM]

How did Cc1nn(Cc2ccccc2)c(C)c1CCC(=O)O do in these assays?
Cruzain noTriton: -5%; RE007 growth inh: -1%; LASV entry inh: 7%; Cruzain Triton: 3.8%; 2A StopGo: -18%; NS1 inh: 6%; SARS PLpro yeast: 1%; MARV entry inh: 3%

What do the screens show for `COc1ccc(C2/C=C\CN(S(=O)(=O)/C=C/c3ccccc3)CC(=O)N2Cc2ccc(F)cc2)cc1` (stereo unspecified)?
RE007 growth inh: 7%; 2A StopGo: 6%; NS1 inh: inconclusive; SARS PLpro yeast: -3%

How did CCCC(=O)N(c1ccc(OC)cc1)C1C=CS(=O)(=O)C1 (stereo unspecified) do in these assays?
Cruzain noTriton: -12%; RE007 growth inh: 13%; LASV entry inh: 6%; Cruzain Triton: -0.8%; NS1 inh: -1%; SARS PLpro yeast: 3%; MARV entry inh: 15%
